Assay outcomes (PubChem)
EPAC2 antag: human EPAC2 antagonism, validation; Q8WZA2; EPAC2 Rap1B BODIPY-GDP exchange, fluorescence; Potency, µM (titrated, usually from 112 µM), without a hit: at the highest dose activity, negative = inhibition, hits mostly inhibitors; 16,000 tested, 1.7% active; AID 1645886; active = well fitted inhibition curve with a large enough effect; inconclusive = small, poorly fitted or top-dose-only effect; inactive = no such curve, though single readings can be large or run the other way;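 also: 100% = activation by cAMP agonist control; nearly all actives have a fitted effect of over 40% in size; the record reuses the description of the EPAC1 agonist screen; inactives centre near -10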
Target sequence (Q8WZA2 whole entry, looked up): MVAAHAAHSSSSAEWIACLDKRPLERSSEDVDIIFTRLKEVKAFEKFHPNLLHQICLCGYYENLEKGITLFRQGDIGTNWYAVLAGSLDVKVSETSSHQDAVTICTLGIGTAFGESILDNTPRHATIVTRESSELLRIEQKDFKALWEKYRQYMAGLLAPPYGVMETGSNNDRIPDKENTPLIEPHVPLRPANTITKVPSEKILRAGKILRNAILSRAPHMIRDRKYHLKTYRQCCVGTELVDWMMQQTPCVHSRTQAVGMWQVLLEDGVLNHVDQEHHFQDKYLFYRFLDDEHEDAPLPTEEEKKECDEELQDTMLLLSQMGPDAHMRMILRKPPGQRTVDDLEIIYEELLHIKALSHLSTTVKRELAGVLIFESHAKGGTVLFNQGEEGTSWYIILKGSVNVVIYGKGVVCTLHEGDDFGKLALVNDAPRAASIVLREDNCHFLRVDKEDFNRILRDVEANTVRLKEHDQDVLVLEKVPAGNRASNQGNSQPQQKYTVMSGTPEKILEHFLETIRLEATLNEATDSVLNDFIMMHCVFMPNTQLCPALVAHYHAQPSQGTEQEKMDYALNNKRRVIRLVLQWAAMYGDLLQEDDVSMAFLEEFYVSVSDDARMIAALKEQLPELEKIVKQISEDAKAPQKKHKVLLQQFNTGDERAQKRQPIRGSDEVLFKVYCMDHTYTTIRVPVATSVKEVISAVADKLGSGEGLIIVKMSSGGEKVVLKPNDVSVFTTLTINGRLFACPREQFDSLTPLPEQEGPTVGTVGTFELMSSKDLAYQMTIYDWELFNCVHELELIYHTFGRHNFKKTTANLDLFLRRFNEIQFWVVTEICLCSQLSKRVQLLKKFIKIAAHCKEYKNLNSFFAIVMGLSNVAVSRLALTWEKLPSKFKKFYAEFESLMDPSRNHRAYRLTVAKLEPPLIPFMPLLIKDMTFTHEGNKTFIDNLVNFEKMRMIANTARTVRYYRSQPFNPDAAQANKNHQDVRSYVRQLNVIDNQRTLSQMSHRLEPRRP
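Fluorescent exchange read-out: 100 nM EPAC2 with 250 nM RAP1B–BODIPY-GDP and 50 uM GDP; BODIPY-GDP release lowers fluorescence. Read at 480/540 nm every 5 min for 30 min at room temperature; normalized to 6.5 mM cAMP.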
Starred values were filed as active, the others as inactive; u = inconclusive; & = joins results of further samples; ! = repeats disagree; [ ] = dose if it differs, or a comment. Potency is read from the fitted curve at half-maximal effect. These rows are one share of the data; the hit share may differ from the screen's.

Preview:
SMILES | EPAC2 antag
O=P(O)(O)CP(=O)(O)O | 0%
CC(O)CCCCn1c(=O)c2c(ncn2C)n(C)c1=O (stereo not given) | 7%
O=C(O)[C@@H]1C[C@H](CP(=O)(O)O)CCN1 | -24%
NCC1O[C@@H](OC2C(N)CC(N)C(O)C2O[C@@H]2OC(CO)C(O)C2O)C(N)C(O)C1O (stereo not given in full) | -5%
COC(=O)[C@@H](NC(=O)C1CCCN(c2nc(C)c3ccc(C)cc3n2)C1)C(C)C (stereo not given in full) | 0%
COc1ccc(C(=O)c2coc3ccc(O)cc23)cc1 | 56%[activator]
N[C@@H](C(=O)O)[C@H](CC(=O)O)c1ccc(Cl)cc1 | -8%
CC(=O)N1CCN(C)CC1 | -7%&-18%
O=S(=O)(O)c1cc(N=C=S)ccc1/C=C/c1ccc(N=C=S)cc1S(=O)(=O)O | -1%
COc1ccc(-n2c(=O)c(C)nc3cnc(Oc4ccccc4)nc32)cc1 | -32%
CC(=O)Nc1ccc(OCCOCCOc2ccc(NC(C)=O)cc2)cc1 | -1%
O=c1[nH]cnc2c1ncn2[C@@H]1O[C@H](CO)[C@@H](O)[C@H]1O | -22%
O=C(Cc1ccccc1)Nc1nc2ccc(Cl)cc2c2nc(-c3ccco3)nn12 | u
O=C(O)/C(=C/c1c(C(=O)O)[nH]c2cc(Cl)cc(Cl)c12)c1ccccc1 | -19%
CN(CCO)CC(O)Cn1cnc2c1c(=O)n(C)c(=O)n2C (stereo not given) (tested in a mixture with another compound) | -12%

Main list, previewed entries included:
SMILES | EPAC2 antag
O=P(O)(O)CP(=O)(O)O | 0%
CC(O)CCCCn1c(=O)c2c(ncn2C)n(C)c1=O (stereo not given) | 7%
O=C(O)[C@@H]1C[C@H](CP(=O)(O)O)CCN1 | -24%
NCC1O[C@@H](OC2C(N)CC(N)C(O)C2O[C@@H]2OC(CO)C(O)C2O)C(N)C(O)C1O (stereo not given in full) | -5%
COC(=O)[C@@H](NC(=O)C1CCCN(c2nc(C)c3ccc(C)cc3n2)C1)C(C)C (stereo not given in full) | 0%
COc1ccc(C(=O)c2coc3ccc(O)cc23)cc1 | 56%[activator]
N[C@@H](C(=O)O)[C@H](CC(=O)O)c1ccc(Cl)cc1 | -8%
CC(=O)N1CCN(C)CC1 | -7%&-18%
O=S(=O)(O)c1cc(N=C=S)ccc1/C=C/c1ccc(N=C=S)cc1S(=O)(=O)O | -1%
COc1ccc(-n2c(=O)c(C)nc3cnc(Oc4ccccc4)nc32)cc1 | -32%
CC(=O)Nc1ccc(OCCOCCOc2ccc(NC(C)=O)cc2)cc1 | -1%
O=c1[nH]cnc2c1ncn2[C@@H]1O[C@H](CO)[C@@H](O)[C@H]1O | -22%
O=C(Cc1ccccc1)Nc1nc2ccc(Cl)cc2c2nc(-c3ccco3)nn12 | u
O=C(O)/C(=C/c1c(C(=O)O)[nH]c2cc(Cl)cc(Cl)c12)c1ccccc1 | -19%
CN(CCO)CC(O)Cn1cnc2c1c(=O)n(C)c(=O)n2C (stereo not given) (tested in a mixture with another compound) | -12%
CCCCCCCCCCCCCCCCCC(=O)OCC(C)O (stereo not given) | u
CC1(C2CCN(Cc3c[nH]c4ccccc34)CC2)NC(=O)N(CCN2CCOCC2)C1=O (stereo not given) | -10%
C=C1C[C@H](OC(=O)C(C)(O)CCl)C2C(=C)C(=O)O[C@@H]2C2C1C[C@H](O)[C@]2(O)CCl (stereo not given in full) | 37%
COC(=O)/C=C/c1ccccc1S(=O)(=O)NC(C)C | 0%
CCCCCC=CCC=CCCCCCCCC(=O)OCC | -12%
CC(C)(C)CC(C)(C)N=C1Nc2ccc(Cl)cc2NC12C[C@H]1CCC(=O)N3CC[C@@H](C2)[C@@H]13 (stereo not given in full) | u
Cc1c(C(=O)N2CCCC2)sc2ncnc(NCCN(C)C)c12 | -3%
CCCCCCCC/C=C\CCCCCCCC(N)=O | -12%[11.4 µM]
CN(Cc1ccco1)c1ncncc1-c1cccc(C#N)c1 | -9%
CCC(=O)OCC(=O)C1(OC(=O)CC)C(C)CC2C3C(Cl)CC4=CC(=O)C=C[C@@]4(C)C3C(O)C[C@@]21C (stereo not given in full) | -26%
COc1cc2ccc(=O)oc2c(O)c1OCC=C(C)C | -18%
CNCC[C@@H](Oc1ccccc1C)c1ccccc1 | -3%&-18%
CCCNCC(O)COc1ccccc1C(=O)CCc1ccccc1 (stereo not given) | u
Cc1ccc(SC[C@H](C)CN2CC[C@H](C(C)(C)C)CCC2=O)cc1 | u
Cc1cnc(CNc2nc(-c3ccc4c(c3)OCO4)nc3ccccc23)cn1 | -27%
CN1CCN(CCCN2c3ccccc3Sc3ccc(Cl)cc32)CC1 | 35µM*!
COc1ccccc1Oc1c(NS(=O)(=O)c2ccc(C(C)(C)C)cc2)nc(-c2ncccn2)nc1OCCO | -13%
NS(=O)(=O)c1cc2c(cc1Cl)NC(C1CC3C=CC1C3)NS2(=O)=O (stereo not given) | -33%&-20%
Cc1noc(C)c1-c1ccc2ncnc(Nc3ccccc3)c2c1 | -14%
O=C(Nc1ccccc1)N1CCCC2(CCN(C(=O)c3ccco3)CC2)C1 | 0%
C=C1C(=O)OC2C[C@@]3(C)CCCC(=C)[C@@H]3CC12 (stereo not given in full) | u
C=C[C@@H]1c2cc(C)ccc2N(S(=O)(=O)c2ccc(C)cc2)[C@H](c2ccccc2C(F)(F)F)C1(C#N)C#N | 3%
COCCn1c(=O)c(-c2ccc(F)cc2)nc2cnc(OC)nc21 | -6%
COc1cc(-c2ccc(-[n+]3nc(-c4ccccc4)nn3-c3ccc([N+](=O)[O-])cc3)c(OC)c2)ccc1-[n+]1nc(-c2ccccc2)nn1-c1ccc([N+](=O)[O-])cc1 | 19%
CC(C)NC(=O)N1CCC2(CC1)CCN(C(=O)c1cc(C(F)(F)F)cc(C(F)(F)F)c1)CC2 | u
CCC1(C2CCN(Cc3c(C)[nH]c4ccccc34)CC2)NC(=O)N(Cc2ccc3c(c2)OCO3)C1=O (stereo not given) | -31%
Cc1cc(C(=O)Nc2ccccc2-c2nc(CNC(=O)c3ccccc3Cl)c(C)o2)c(C)o1 | 4%
C[C@]12CCC(=O)C[C@@H]1CC[C@@H]1[C@@H]2CC[C@]2(C)C=CC[C@@H]12 | -3%
COc1ccc(-c2nc3cnc(OCc4ccccc4)nc3n(CCC#N)c2=O)cc1 | -11%
COC(=O)CC1C(C)(C)C(=O)C2CC3=C4CC(=O)OC(c5ccoc5)[C@]4(C)CCC3[C@@]1(C)C2=O (stereo not given in full) | -19%
CCCN(CCC)C[C@@H]1CCCCN1CCNC(=O)N1c2ccccc2C(=O)Nc2cccnc21 | -17%
CCCc1ncc(C[n+]2ccccc2C)c(N)n1 | -10%[56.6 µM]
O=C(Oc1ccccc1)N1CCC2(CC1)CCN(c1cccc(-c3ccccc3)c1)CC2 | -14%
O=C[C@H](O)[C@@H](O)[C@H](O[C@H]1O[C@H](CO)[C@@H](O[C@H]2O[C@H](CO)[C@@H](O)[C@H](O)[C@H]2O)[C@H](O)[C@H]1O)[C@H](O)CO | 12%
C[C@H]1CCC(=O)N(CCSc2ccc(Br)cc2)CC1 | u
Cc1cccc(CNC(=O)c2cnn(-c3nccc(-c4ccccc4F)n3)c2C2CC2)n1 | 13%
CC1(O)CCC(C(C)(C)O)CC1 (stereo not given) | -19%
COc1cc(C(=O)Oc2ccc3c(OC)c4ccoc4nc3c2OC)cc(OC)c1OC | 11%
O=C(O)c1ccc(NC2OC[C@@H](O)[C@H](O)[C@H]2O)cc1 (stereo not given in full) | 7%
O=C(O)c1cc(O)c2c(c1)[O][Bi][O]2 | 16%
O=C(c1cnccn1)N1CCC2(CCCN(Cc3ccncc3)C2)CC1 | -21%
CCC[C@@H]1C[C@@H](C(=O)N[C@@H]([C@H]2O[C@H](SC)[C@H](O)[C@@H](O)[C@H]2O)[C@@H](C)O)N(C)C1 | -36%
Cc1nc2cnc(Oc3ccccc3)nc2n(Cc2cccs2)c1=O | u
COCCn1c(=O)cnc2cnc(Oc3cccc(Cl)c3)nc21 | -10%
NC(=O)c1ncn(C2OC(CO)C(O)C2O)c1N (stereo not given) | -8%

New compounds follow:
SMILES | EPAC2 antag
CC(C)Cc1nc2cc(NS(=O)(=O)N(C)C)cc(C(=O)N3CCOCC3)c2n1C | -20%
COc1cccc(-c2nccc(NCc3cnc(C)cn3)n2)c1 | -30%
O=C(O)P(=O)(O)O | -15%
N#Cc1ccc(CN2CCC3(CC2)CCN(C(=O)c2cccc(F)c2)CC3)cc1 | -20%
CCCN(CCC)S(=O)(=O)c1ccc(C(=O)O)cc1 | 21%&-14%
Clc1ccc(-n2cccc2CN2CCOc3ccc(CN4CCOCC4)cc3C2)nc1 | -1%
C[C@]12CCC(=O)C=C1CC[C@@H]1C2[C@@H](O)C[C@@]2(C)[C@H]1CC[C@]2(O)C(=O)CO (stereo not given in full) | -9%
C[C@H](CCCC(C)(C)O)[C@H]1CC[C@H]2[C@@H]3CC=C4C[C@@H](O)CC[C@]4(C)[C@H]3CC[C@]12C | -1%
C1N2CN3CN1CN(C2)C3 | 0%&7%
O=S1(=O)CCO[C@H]2Cc3ccccc3[C@H]2N1Cc1cccc(F)c1 | u
O=C(NCCO)c1cn(C2CCN(Cc3c(F)cccc3Cl)CC2)nn1 | -4%
CC(C)n1c(/C=C/[C@@H](O)C[C@@H](O)CC(=O)O)c(-c2ccc(F)cc2)c2ccccc21 | u
COc1cccc(-c2cncnc2NCc2cnc(C)cn2)c1 | -9%
CCOc1ccc(Cc2nccc3cc(OCC)c(OCC)cc23)cc1OCC | u
Oc1cc2c(c(Cl)c1O)CCNC[C@H]2c1ccccc1 | -23%
NCCC(=O)c1ccccc1N | -11%
NC(N)=NC(N)=Nc1cccc(Cl)c1 | 2%&-16%&-17%
NCC1OC(n2cnc3c(=O)[nH]c(N)nc32)C(O)C1O (stereo not given) | -20%
N[C@@H](C(=O)O)c1ccc(C(=O)O)c(C(=O)O)c1 | -2%&0%&-2%&4%
CCCCCCCCCCCCCCCCOP(=O)([O-])OCC[N+](C)(C)C | -20%
CC(C)(C)c1ccc(C(=O)C[n+]2cccc(Br)c2)cc1 | -11%
COc1ccc(-n2c(=O)c(C)nc3cnc(N4CCOCC4)nc32)cc1 | 1%
CCN(CC)c1ccc(/C=C/c2ccncc2)cc1 | u
CCC1=C(C)CN(C(=O)NCCc2ccc(S(=O)(=O)NC(=O)NC3CCC(C)CC3)cc2)C1=O (stereo not given) | -20%
O=c1cc(-c2ccccc2)oc2cc(O[C@@H]3O[C@H](CO)[C@@H](O)[C@H](O)[C@H]3O)c(O)c(O)c12 | 20%
CCOc1ccc(C[C@H]2NC(=O)CCSSC[C@@H](C(=O)N3CCC[C@H]3C(=O)N[C@@H](CCCN)C(=O)NCC(N)=O)NC(=O)[C@H](CC(N)=O)NC(=O)[C@H]([C@@H](C)O)NC(=O)[C@H]([C@@H](C)CC)NC2=O)cc1 | 3%
CCOC(=O)C[C@H]1c2ccccc2S(=O)(=O)N1c1ccccc1 | u
CCCCCCCCCCCC1=C(O)C(=O)C=C(O)C1=O | -10%&-29%&-11%
Cc1cnc(CNc2cc(-c3cccc(C#N)c3)ncn2)cn1 | -22%
COc1ccccc1CN1CCC2(CC1)CCN(S(=O)(=O)c1ccccc1)CC2 | -16%
CC(=O)N1CCC2(CCCN(C(=O)Nc3cccc(F)c3)C2)CC1 | -20%
CO/N=C(\C(=O)N[C@@H]1C(=O)N2C(C(=O)O)=C(COC(C)=O)CS[C@H]12)c1csc(N)n1 | 14%
C[C@H](N=C(NC#N)Nc1ccncc1)C(C)(C)C | -36%
Cc1cnc(SCc2ccccn2)nc1C1CCCN(C(=O)c2ccc(-c3ccccc3F)cc2)C1 (stereo not given) | u
Cc1oc(-c2ccccc2NC(=O)C2CCCO2)nc1CNC(=O)c1cc(F)c(F)cc1F (stereo not given) | 10%
CN1CCc2cc(O)c(O)cc2C(c2ccccc2)C1 (stereo not given) | -5%
O=C(O)[C@H]1CN(C/C=C/P(=O)(O)O)CCN1 | 20%
O=C(NCCc1ccccn1)c1cnn(-c2ncc3c(n2)-c2ccccc2CC3)c1C1CC1 | -37%
COc1ccc(-c2nc3cnc(Nc4cccc(OC)c4)nc3n(CCC#N)c2=O)cc1 | 3%
COc1ccc2c(c1)-c1nc(-n3ncc(C(=O)N(C)CC4CCCN(C)C4)c3C3CC3)ncc1CC2 (stereo not given) | -18%
NC1[C@H]2CN(c3nc4c(cc3F)c(=O)c(C(=O)O)cn4-c3ccc(F)cc3F)C[C@@H]12 (stereo not given in full) | -6%
Cc1cnc(SCC2CCCO2)nc1C1CCCN(C(=O)C2=NNC(=O)CC2)C1 (stereo not given) | 11%
CCn1c(-c2ccccc2F)nc2cc(C(=O)N3CCNC(=O)C3CC(=O)OC)cc(NC(C)=O)c21 (stereo not given) | u
O=c1c(-c2cccc(Cl)c2)nc2cncnc2n1Cc1ccccc1 | 27%
CN(Cc1cc(Br)cc(Br)c1N)C1CCCCC1 | -18%
COc1ccc(C(=O)N2CCC[C@@]3(CCN(C(=O)Nc4cccc(C#N)c4)C3)C2)cc1 | -16%
O=C(c1csnn1)N1CCC2(CC1)CCN(C(c1ccccc1)c1ccccc1)CC2 | -33%
CN1CCCC2(CCN(C(=O)c3cccc(F)c3)CC2)C1 | -7%
COc1cc2c(cc1OC)-c1c(oc3cc(O)cc(O)c3c1=O)CO2 | 1%
COc1ccc(Oc2ncc3nc(C)c(=O)n(Cc4ccc(F)cc4)c3n2)cc1 | u
COc1ccccc1CNc1ccnc(-c2ccc(N(C)C)cc2)n1 | -20%
O=S1(=O)CCOC[C@H](c2ccccc2)N1Cc1ccc(Cl)cc1Cl | u
